From PubChem
eIF4H FP inh – inhibitors of RNA binding by human eIF4H. Q15056. eIF4H fluorescence polarization binding assay. inhibition, % at 35 µM. actives 0.94% (n = 290,000);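 active means 50% or more with normal probe brightness, or confirmed in later tests; inconclusive means above 50% with abnormal brightness, or retests that disagree; inactive means below 50% or failed in later tests; about a fifth of its hits are not listed in these tables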;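 further: calls also rest on retests at 20 µM and on dose response follow-up; 0% = protein and probe with vehicle and 100% = probe without protein; strong numbers were not always called active; many hits fall short of the cut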
MT1-MMP act inh – blocks activation of human MT1-MMP; P50281; HT1080 RFP-PRO-GFP cells, GFP/RFP ratio fluorescence, overnight; percent of plate control window, DMSO zero; GFP/RFP ratio change, % at 20 µM; actives 0.061% (n = 360,000); AID 651647;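 active means GFP/RFP ratio change of at least 30% with cell ATP level not reduced by more than half and red fluorescence within 50% of control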; further: strong numbers were not always called active
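Assay system: HT1080 cells carrying an RFP-PRO-GFP reporter | Dosing: Single dose of 20 µM compound, 1% DMSO final | Incubation: Cells overnight before dosing, compound overnight, 37 °C, 5% CO2 | Evaluation: GFP/RFP fluorescence ratio | Control set: DMSO and RFP-L50D-GFP cell wells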
CSC inhib – blocks cancer stem cells; cancer stem cell-like cells viability, luminescence; inhibition, % at 7.5 µM; AID 2717; actives 1.1% (n = 300,000);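 active means mean at 75% or more and at least half the replicates too; inconclusive means mean and replicates disagree; tested in HMLE shEcad cells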;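 further: 0% = median of negative and 100% = median of positive control wells; the first replicate is given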
PABP polyA inh – blocks human PABP binding to poly(A) RNA; P11940; fluorescence polarization; inhibition, % at 35 µM; actives 1% (n = 290,000); AID 2014;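 active means 50% or more with normal probe brightness, or confirmed in later tests; inconclusive means above 50% with abnormal brightness, or retests that disagree; inactive means below 50% or failed in later tests; about a fifth of its hits are not listed in these tables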;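 further: calls also rest on retests at 20 µM and on dose response follow-up; controls were probe without protein and protein plus probe with vehicle; some compounds called inactive have numbers as strong as hits; many hits fall short of the cut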
HIV Env fusion – HIV envelope-mediated fusion inhibition; HeLa-JRFL Env/CEM21 cell fusion, luciferase; inhibition, % at 12.3 µM; actives 1.1% (n = 360,000); AID 651610;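 active means mean replicate inhibition score of at least 50 and every replicate individually at or above 50; inconclusive means only one of the two criteria met; inactive means mean below 50 and not all replicates reaching 50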;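 further: 0% = plate neutral controls and 100% = maraviroc near 300 nM; one replicate is shown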
Rce1 inh – inhibitors of yeast Ras-converting enzyme | calls only | yeast membranes, quenched prenylated peptide cleavage fluorescence | Q03530 | actives 0.27% (n = 290,000);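 active means fall in fluorescence gain of 50% or more versus controls, with final raw signal at or below 3038400; inconclusive means same 50% fall but final raw signal above 3038400; inactive means fall in fluorescence gain under 50%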;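 further: plate controls were neutral control wells for no effect and wells lacking membranes for full effect; tested at 10 µM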
Target sequence (Q03530 whole entry, looked up): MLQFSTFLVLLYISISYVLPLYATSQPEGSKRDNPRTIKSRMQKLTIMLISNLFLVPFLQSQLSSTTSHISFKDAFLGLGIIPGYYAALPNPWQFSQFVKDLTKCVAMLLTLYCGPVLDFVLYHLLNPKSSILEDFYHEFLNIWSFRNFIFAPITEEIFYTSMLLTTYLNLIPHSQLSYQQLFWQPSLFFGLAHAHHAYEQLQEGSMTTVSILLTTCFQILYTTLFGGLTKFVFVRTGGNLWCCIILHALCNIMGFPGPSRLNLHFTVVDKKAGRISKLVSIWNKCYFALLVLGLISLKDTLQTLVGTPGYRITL
UUG fidelity – alters start codon recognition fidelity in yeast; S. cerevisiae UUG-firefly luciferase reporter, luminescence/redox ratio; activity score, % at 18.7 µM; actives 0.13% (n = 350,000);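 active means replicate mean at a twofold rise or more, about +100% in these data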;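 further: firefly luciferase made from a UUG start codon reports start codon fidelity; reporter light over untreated wells divided by growth signal over untreated wells; some hits fall short of that in this replicate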
eIF4H FP inh retest – further read-out of eIF4H FP inh, marked with its call; inhibition, %; compound at 20 µM; confirmation average;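 mean of two retest wells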
PABP polyA inh retest – further read-out of PABP polyA inh, marked with its call; inhibition, %; compound at 20 µM; confirmation repeats;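 mean of two retest wells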
MT1-MMP act inh RFP – second read-out of MT1-MMP act inh, no call of its own (marks repeat the call); RFP signal change, %; measured here: RFP expression control read;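 0 = vehicle wells; hits needed this value within 50% of zero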
Active calls of the source: *; i = inactive; ? = inconclusive; nt = no result given; & = joins results of further samples; [ ] = dose if it differs, or a comment. Rows were taken by chance. About 3% of those tested had a hit in this group.

SMILES | eIF4H FP inh | MT1-MMP act inh | MT1-MMP act inh RFP | CSC inhib | PABP polyA inh | HIV Env fusion | Rce1 inh | UUG fidelity | others
CC1(CCC(=O)N2CCCC(Nc3ccc(F)cc3)C2)CC1 (stereo unspecified) | 2 | -4 | -6 | 3 | 18 | 9 | i | 6
Cc1nn(-c2nnc(C)c(=O)[nH]2)c(C)c1SCC(=O)Nc1ccc(F)cc1 | -2 | 6 | 3 | -12 | 8 | nt | i | -28
Cc1ncc(CO)c(CNc2ccc(Oc3ccccc3)cc2)c1O | -8 | -8 | -25 | -5 | -1 | 22 | i | 8
COc1ccccc1NC(=O)NNC(=O)c1ccncc1 | nt | 1 | 1 | nt | nt | -5 | nt | -19
COc1ccc2cc(CCNC(=O)c3ccc(S(=O)(=O)N4CCCC4)cc3)c(=O)[nH]c2c1 | -6 | -3 | -5 | -24 | 9 | -3 | i | -4
Cc1ccc(-n2c(SCc3ccc(C#N)cc3)nnc2-c2ccccn2)cc1 | -8 | 1 | 0 | 0 | 0 | -8 | nt | -21
CCCCC1(C)OC(=O)C(=Cc2ccc(N(CC)CC)cc2)C(=O)O1 (stereo unspecified) | ? | -1 | -1 | -10 | ? | nt | i | -5
CSCC[C@H](NC(=O)OC(C)(C)C)c1nnc(SCC(=O)N(C)C)o1 | -4 | -2 | 1 | -11 | 3 | nt | i | 0
COC(=O)CN(c1ccc(C)cc1)S(=O)(=O)c1ccc(F)cc1 | -5 | 2 | 6 | -11 | -1 | -22 | i | nt
CCCCN1CC(C(=O)NCc2ccc(C)cc2)CC1=O (stereo unspecified) | -5 | -2 | 1 | 24 | 5 | -31 | i | 2
CCN(C(=O)C(C)OC(=O)CCCNC(=O)c1ccc(Cl)cc1)c1ccccc1 (stereo unspecified) | nt | 1 | 0 | 0 | nt | 8 | i | -6
CCN(CC(=O)Nc1c(F)cccc1F)C(=O)C1CCN(S(=O)(=O)c2ccc(F)cc2)CC1 | nt | -2 | -1 | -2 | nt | -63 | i | -4

Quoted at random: 2 records from the list, in no set order.
SMILES | eIF4H FP inh | MT1-MMP act inh | MT1-MMP act inh RFP | CSC inhib | PABP polyA inh | HIV Env fusion | Rce1 inh | UUG fidelity | others
CC1(CCC(=O)N2CCCC(Nc3ccc(F)cc3)C2)CC1 (stereo unspecified) | 2 | -4 | -6 | 3 | 18 | 9 | i | 6
CSCC[C@H](NC(=O)OC(C)(C)C)c1nnc(SCC(=O)N(C)C)o1 | -4 | -2 | 1 | -11 | 3 | nt | i | 0

Continuation:
SMILES | eIF4H FP inh | MT1-MMP act inh | MT1-MMP act inh RFP | CSC inhib | PABP polyA inh | HIV Env fusion | Rce1 inh | UUG fidelity | others
CC(=O)c1cccc(NC(=O)NC2CCCCC2)c1 | -4 | -1 | 3 | nt | -8 | nt | i | 2
CC(C)(C)NC(=O)CCN(/N=C/c1ccccc1)C1=NS(=O)(=O)c2ccccc21 | -3 | -1 | -2 | 3 | 4 | -1 | i | -6
Cc1sc2ncnc(N3CCC(C(=O)NNC(=O)COc4ccc(Cl)cc4)CC3)c2c1C | nt | -11 | -1 | nt | nt | -1 | nt | -5
O=C(O)C1C2CCC(O2)C1C(=O)Nc1ccc(F)c(Cl)c1 (stereo unspecified) | -9 | 1 | 0 | -11 | -3 | -5 | i | 2
CC(=O)NCCc1ccc(C(=O)COC(=O)c2ccc(C)s2)cc1 | nt | -6 | 0 | nt | nt | 12 | nt | -46
O=C(O)C1=C[C@H](c2ccc(Br)cc2)C[C@H](OCCCCO)O1 | 8 | 0 | 2 | 6 | 6 | -7[16.7 µM] | i | -1&-28
Brc1ccc2nc(-c3ccccc3)c(Cc3ccccc3)n2c1 | nt | -10 | -12 | nt | nt | -26 | nt | 3
Cc1ccsc1CN(C(=O)c1ccccc1)C1CCS(=O)(=O)C1 (stereo unspecified) | -8 | -2 | 1 | -5 | 5 | 6 | i | -5
O=C(CNS(=O)(=O)c1ccc(Br)s1)NCCc1ccc(Cl)cc1 | 7 | 0 | 5 | 51 | -2 | 0 | i | -17
CCOC(=O)C1CCN(C(=O)CN2C(=O)NC3(CCCCC3)C2=O)CC1 | nt | 3 | 2 | -5 | nt | nt | nt | -2
O=C(CC1C(=O)NCCN1Cc1ccc(-c2ccccc2)cc1)NCC1CCOCC1 (stereo unspecified) | 8 | -3 | -1 | -2 | 9 | 17 | i | nt
Cc1c(NC(=O)c2cc3ccccc3o2)c(=O)n(-c2ccccc2)n1C | 7 | 0 | -1 | nt | 2 | 13 | i | -11
O=C(O)c1cc(-c2ccccc2)nn1CC1CC(c2cccc([N+](=O)[O-])c2)=NO1 (stereo unspecified) | nt | nt | nt | 7 | nt | 12 | i | nt
Cc1ccc(C)c(Cn2nnc3c(=O)[nH]c(C4CCCN(C(=O)c5ccco5)C4)nc32)c1 (stereo unspecified) | -8 | -1 | -1 | -4 | 3 | -2 | i | -4
CCN(CC(O)Cn1c2ccccc2c2ccccc21)S(=O)(=O)c1ccc(F)cc1 (stereo unspecified) | 3 | -5 | -7 | 10 | 1 | 50 | i | -14
CCn1c(SCc2ccc(Cl)cc2Cl)nc2nc3c(cc2c1=O)CCCC3 | 5 | 0 | -5 | -2 | -2 | 2 | nt | 5
Nn1c(COc2cccc(Br)c2)nnc1SCC(=O)N1CCc2ccccc2C1 | -8 | 0 | 6 | 19 | 7 | -14 | i | -16
O=[N+]([O-])c1nn(-c2ccc(Cl)cc2)n(O)c1=NCc1ccccc1Cl | -11 | 3 | -1 | 2 | ? | -74 | i | nt
Cc1cccc(OCC(=O)Nc2ccc3c(c2)nc(CCN2CCN(C)CC2)n3C)c1 | -8 | 3 | -1 | -7 | -5 | 9 | i | -22
O=C(CSc1nnc(NC(=O)C2CC(=O)N(c3ccccc3)C2)s1)NCc1ccco1 (stereo unspecified) | 39 | -1 | 2 | -25 | 17 | -5 | i | -13
CCC(C)C(NS(=O)(=O)c1ccc(C)cc1)C(=O)N1CCOCCOCCOCC1 (stereo unspecified) | 6 | 1 | 4 | -1 | 7 | 7 | i | -16
CCOC(=O)N1CCN(C(=O)c2ccc(-n3c(=S)[nH]c4ccccc4c3=O)cc2)CC1 | -7 | 7 | 3 | nt | -8 | 5 | nt | -18
Cc1ccc(C(=O)O)cc1NC(=S)NC(=O)C(c1ccccc1)c1ccccc1 | -7 | 7 | 3 | 1 | -5 | nt | i | -15
Cc1nn(Cc2ccccc2)c2c1C(c1ccccc1)C(C#N)=C(N)O2 (stereo unspecified) | -11 | 2 | 1 | 0 | 6 | -19 | i | -11
Cc1ccc(-c2nc3ccccn3c2NCc2ccc3c(c2)OCO3)cc1 | 0 | 3 | -1 | -11 | 8 | -12 | i | -19
COC(=O)c1cccc(C23CC4(C2)[C@H](CN(Cc2ccc(C(F)(F)F)cc2)[C@@H]4c2ccccc2)C3c2ccc(Cl)nc2)c1 (stereo partly specified) | -8 | 4 | -1 | -1 | -12 | -31 | i | 5
COc1cc(-c2cc(C(=O)O)c3c(OC)c(OC)c(OC)cc3n2)ccc1O | -2 | 3 | 1 | -18 | -1 | nt | i | 5
O=C1OC[C@@H]2CCCN2C(=O)[C@@H](CC(=O)N(CCO)Cc2ccccc2)C/C=C\C[C@@H]1Cc1ccc(F)cc1 | nt | 0 | -1 | 6 | nt | nt | nt | 10
Cn1cnnc1SCCn1c(N2CCCCC2)nc2c1c(=O)[nH]c(=O)n2C | 2 | 3 | 0 | -9 | 2 | -22 | i | -20
O=C(N/N=C/c1c(F)cccc1Cl)c1cc(C2CC2)[nH]n1 | 4 | -4 | -2 | -24 | 2 | -43 | i | -26
O=C(CCNS(=O)(=O)c1cccs1)N1CCc2ccccc2C1 | -8 | 0 | 1 | -3 | -3 | nt | i | -8
O=C(Nc1ccc(S(=O)(=O)Nc2ncccn2)cc1)c1cccnc1 | -7 | 2 | 2 | -12 | 12 | 0 | i | nt
N#C/C(C(=O)NCCc1ccccc1)=C1/N=C(NC(=O)c2cccs2)c2ccccc21 | -3 | -10 | 3 | 9 | -4 | -14 | i | nt
O=C(NC(Cc1ccccc1)C(=O)O)/C(=C/c1ccco1)NC(=O)c1cccc(Br)c1 (stereo unspecified) | 69 | -4 | 8 | 22 | -3 | 16 | i | -2 | eIF4H FP inh retest=-1;PABP polyA inh retest=3
O=C(O)/C=C/C(=O)NCCc1ccccc1 | 2 | -4 | -1 | 14 | 5 | 16 | i | nt
O=C(NC1CCCCC1)C1CC(=O)N(c2ccccc2)C1 (stereo unspecified) | -8 | 2 | 5 | nt | 14 | -18 | i | -6
CCN(CC(=O)NNC(=O)c1ccccc1)Cc1ccc(OC)c(F)c1 | nt | -4 | -2 | -7 | nt | 11 | nt | 35
COc1cccc(/C=N/NC(=O)CCCC(=O)NC2CCCCC2)c1 | -4 | 3 | 6 | -4 | -4 | 9 | i | -21
N#CC1=C(N)C(C#N)(C#N)C(c2cccnc2)C2CCCC=C12 (stereo unspecified) | 120* | nt | nt | -6 | 115 | nt | i | nt | eIF4H FP inh retest=58*;PABP polyA inh retest=47
COCC(=O)N(C)C[C@@H]1Oc2cc(Br)ccc2S(=O)(=O)N([C@H](C)CO)C[C@H]1C | nt | 1 | 3 | nt | nt | -20 | nt | 9
O=c1[nH]c(=S)[nH]c2scc(-c3ccc(Br)cc3)c12 | nt | 0 | -3 | 14 | nt | 5 | i | -28
c1ccc(OCc2nn3c(C4CCCCC4)nnc3s2)cc1 | -3 | -3 | -2 | -4 | 1 | 63* | i | -19
CC(C)CSc1nc(N)nc2c1ncn2C1OC(CO)C(O)C1O (stereo unspecified) | nt | 1 | 2 | nt | nt | 0 | nt | -7
Nc1ncc(Br)cc1S(=O)(=O)NCCC(=O)NC1CCCCC1 | nt | -4 | -4 | -1 | nt | 3 | i | 0
CC(CCc1ccccc1)NC(=O)c1ccco1 (stereo unspecified) | -1 | 3 | -1 | 1 | -3 | -54 | i | -19
O=C(c1cnn(-c2cccc(F)c2)c1)c1ccccc1O | -2 | 2 | 5 | -8 | -1 | -79 | i | nt
Cc1cccc(C)c1NC(=O)Cn1nnc(C(=O)Nc2ccc(F)cc2F)c1N | 6 | 0 | -4 | -6 | 1 | 5 | i | -14
CN1C(=O)c2ccccc2C(C(=O)O)C1c1cccc([N+](=O)[O-])c1 (stereo unspecified) | 4 | 0 | 2 | -9 | 7 | 11 | i | nt
Cc1cc(Cl)ccc1C(O)c1ncc(-c2ccccc2Cl)[nH]1 (stereo unspecified) | nt | 1 | -3 | nt | nt | 3 | nt | -9
CCOC(=O)c1nn(-c2ccccc2)c(C)c1C(C)=O | 8 | -3 | 4 | nt | -14 | -37 | i | -32
O=C(N/N=C/C=C/c1ccc([N+](=O)[O-])cc1)C1COc2ccccc2O1 (stereo unspecified) | -6 | 5 | 1 | -6 | 19 | nt | i | nt
O=C(OCC(=O)N1CCCCCC1)c1ccc(F)cc1F | nt | 5 | 5 | nt | nt | -24 | nt | -19
O=C1/C(=C/c2cccc(F)c2)SC(=S)N1NS(=O)(=O)c1ccccc1 | 0 | 4 | 5 | -3 | 15 | 11 | i | nt
COc1ccc(CC(=O)NNC(=O)COc2ccc(Br)cc2C)cc1OC | -2 | -1 | 0 | -19 | 0 | 31 | i | nt
Cc1ccc(S(=O)(=O)N2CCCC(C(=O)NCc3ccco3)C2)cc1Cl (stereo unspecified) | -3 | -4 | -5 | 12 | 4 | 3 | i | -6
COc1ccc(Cl)cc1NC(=O)c1nc2nc(C)cc(C(F)F)n2n1 | -10 | 0 | 1 | nt | -6 | 10 | i | -6
